Screening data (PubChem)
Arbovirus anti = arbovirus infection inhibition; arbovirus infection cell-based antiviral screen; inhibition, % at 10 µM; AID 1251; hit rate 0.37% among 200,000;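 active means inhibition from about 30%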;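 further: bluetongue infection of BSR cells; cell survival read as ATP light after 72 h; 0% = infected wells without compound and 100% = uninfected wells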
Mtb growth = M. tuberculosis H37Rv growth inhibitors, H37Rv strain (AID 1626). hit rate 0.95% among 220,000. M. tuberculosis H37Rv growth inhibition; higher % means a stronger effect. inhibition, % at 10 µM; hits with a dose series show IC50 in µM;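 active means confirmed in a dose series; inconclusive means inhibition above 80% but not taken into the dose series; inactive means below 80% or under 30% at every dose of the series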;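 further: bacteria incubated seven days before Alamar blue readout; 0% = bacteria only wells and 100% = bacteria with antibiotic wells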
RecA intein inh = blocks M. tuberculosis RecA intein splicing | cell-free RecA intein splicing, fluorescence | P9WHJ3 | inhibition, %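 (about 9 µM by stock and volumes)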 | AID 2221 | hit rate 0.75% among 290,000; in the data active means inhibition above about 30%; inconclusive means no clear call, values can overlap the other calls;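 further: 0% = vehicle wells and 100% = reference inhibitor control wells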
Target sequence (P9WHJ3 whole entry, looked up): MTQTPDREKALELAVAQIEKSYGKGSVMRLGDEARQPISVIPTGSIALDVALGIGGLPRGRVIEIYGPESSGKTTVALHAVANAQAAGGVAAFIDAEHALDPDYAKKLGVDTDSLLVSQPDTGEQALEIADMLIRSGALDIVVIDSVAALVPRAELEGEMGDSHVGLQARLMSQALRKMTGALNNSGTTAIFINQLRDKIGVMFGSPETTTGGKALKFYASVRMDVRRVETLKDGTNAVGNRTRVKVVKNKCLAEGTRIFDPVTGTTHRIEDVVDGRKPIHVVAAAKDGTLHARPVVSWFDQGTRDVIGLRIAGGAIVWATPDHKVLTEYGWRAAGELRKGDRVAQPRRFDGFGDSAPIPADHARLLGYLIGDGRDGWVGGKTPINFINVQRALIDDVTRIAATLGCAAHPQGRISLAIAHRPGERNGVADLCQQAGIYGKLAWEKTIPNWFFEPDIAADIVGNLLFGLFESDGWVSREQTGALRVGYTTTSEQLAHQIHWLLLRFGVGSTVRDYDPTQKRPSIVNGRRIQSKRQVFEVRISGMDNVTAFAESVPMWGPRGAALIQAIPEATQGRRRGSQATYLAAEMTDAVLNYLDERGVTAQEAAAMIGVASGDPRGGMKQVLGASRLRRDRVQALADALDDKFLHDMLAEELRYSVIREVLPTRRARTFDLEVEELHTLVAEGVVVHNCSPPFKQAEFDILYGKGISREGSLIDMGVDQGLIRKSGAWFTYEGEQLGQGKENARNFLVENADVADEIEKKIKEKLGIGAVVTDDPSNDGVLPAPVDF
Mtb betalactam = beta-lactam sensitization of Mtb H37Rv. M. tuberculosis H37Rv growth with meropenem, percent inhibition; hits of this screen are not shown here. inhibition, % at 25 µM. hit rate 0.27% among 330,000. AID 434955;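 active means about 74% or more and at least 40 points above the plate without the antibiotic, then above 30% in a dose series; inconclusive means first-round hits that could not be retested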;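 further: growth measured after seven days incubation then overnight dye step; 0% = bacteria only wells and 100% = bacteria with antibiotic; twin plates without the antibiotic show which effects depend on it; some results filed as inactive read as strong as hits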
YopH inh = blocks Yersinia enterocolitica YopH tyrosine phosphatase; hit rate 0.16% among 140,000; fluorescence Ex485/Em525; inhibition, %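 (about 10 µM by stock and volumes)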;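 active means inhibition of 50% or more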;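 further: controls were vehicle for no effect and minimum signal wells for full effect; inactives centre near -20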
Arbovirus anti repeat = also measured in Arbovirus anti; calls as there; inhibition, %; measured here: 10K subset replicate screen; many hits read low in the repeat;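 first of two repeat runs on a subset; 0% = infected and 100% = uninfected wells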
The depositor's hits bear a star; ? = inconclusive; . = not tested or not shown.

Preview, two compounds:
SMILES	Arbovirus anti	Mtb growth	RecA intein inh	Mtb betalactam	YopH inh	others
Cc1ccc(NC(=O)C2CCCN(S(=O)(=O)c3c(C)noc3/C=C/N(C)C)C2)c(C)c1 (stereo not given)	.	.	-3.6	-3	.
CC1(C)Cc2c(c(=S)nc(-c3ccccc3)n2CCO)CO1	-2	7%	11	-6	-6

This part in full, from the start:
SMILES	Arbovirus anti	Mtb growth	RecA intein inh	Mtb betalactam	YopH inh	others
Cc1ccc(NC(=O)C2CCCN(S(=O)(=O)c3c(C)noc3/C=C/N(C)C)C2)c(C)c1 (stereo not given)	.	.	-3.6	-3	.
CC1(C)Cc2c(c(=S)nc(-c3ccccc3)n2CCO)CO1	-2	7%	11	-6	-6
FC(F)(F)c1ccccc1CNCc1ccc2c(c1)OCO2	.	.	0.2	5	.
CCOc1ccccc1C1CC(=O)NC2=C1C(=O)CCC2 (stereo not given)	-9	1%	-0.5	-1	-9
COC(=O)CSc1nnc(CNC(=O)Cc2ccccc2)n1-c1ccccc1OC	1	-3%	.	-1	-16
N/C(=N\OC(=O)C1CCCCC1)c1cccc([N+](=O)[O-])c1	9	76%	-1.6	?	3
CCOC(=O)CNC(=S)N(Cc1ccccc1)Cc1ccccc1F	0	-11%	0.7	3	.
CC(C)=CCCC(C)CN1CCC(n2nccc2NC(=O)c2ccccc2)CC1 (stereo not given)	.	.	2.0	2	.
COc1cc(C(=O)N2C(=O)c3cccc(N)c3C2=O)cc(OC)c1OC	-7	-1%	-240	0	.
CN1N=C(c2ccc(Cl)cc2)CC(c2ccc(Cl)cc2)C1=O (stereo not given)	-15	6%	5.4	9	.
CCOc1cc2[nH]c(=S)n(CCCN3CCOCC3)c(=O)c2cc1OCC	-2	-2%	-3.3	-2	-34
CC(C)[C@@H](C(=O)N1CCCC1)N1C(=O)N2CCc3c([nH]c4ccccc34)[C@@]2(C)C1=O	.	.	6.7	-4	.
COc1ccccc1C(=O)NCCC(=O)NCC(c1ccccc1)N(C)C (stereo not given)	.	.	4.2	-4	.
CCOC(=O)c1c(C)[nH]c(C=C2C(=O)CCCC2=O)c1O	-8	-1%	-2.1	0	-28
CCCC(NC(=O)Cc1c(C)c2cc3c(C)c(C)oc3c(C)c2oc1=O)C(=O)N[C@@H](Cc1ccccc1)C(=O)O (stereo not given in full)	.	.	-0.5	-4	.
Cc1ccc(NC(=O)COC(=O)CN2C(=O)NC3(CCCC3)C2=O)cc1S(=O)(=O)N(C)C	1	-5%	-1.2	13	.
C=CCSC(=S)Nc1c(C)n(C)n(-c2ccccc2)c1=O	3	1%	2.5	7	.
O=C(O)[C@@H]1CCCN1S(=O)(=O)c1cccc(S(=O)(=O)N2CCC[C@H]2C(=O)O)c1	.	.	-0.2	-8	.
COc1cc(NS(=O)(=O)c2ccc(NC(=O)c3ccc(Cl)cc3Cl)cc2)ncn1	.	.	1.6	?	.
O=C(CCSCCC(=O)NCc1ccc(F)cc1)NCc1ccc(F)cc1	-8	1%	6.0	0	-15
OCC1(Cc2ccccc2)CCN(Cc2cccc(F)c2F)CC1	1	4%	0.0	-4	.
Cc1ccc2nc(NCCC(=O)O)nc(-c3ccccc3)c2c1	6	3%	-111	1	.
COc1ccc(CN/C(C)=C(/C#N)C(N)=O)cc1OC	-1	-11%	2.2	-6	-60
Cc1ccc(N2CCN(/N=C/C=C/c3ccccc3)CC2)cc1	-3	-4%	-0.8	3	-15
Cc1c(Cl)cnc(NC(=O)COC(=O)CCC(=O)c2cccs2)c1Cl	0	3%	2.5	.	-2

The last 3 records of the part above lead into the next.
SMILES	Arbovirus anti	Mtb growth	RecA intein inh	Mtb betalactam	YopH inh	others
COc1ccc(CN/C(C)=C(/C#N)C(N)=O)cc1OC	-1	-11%	2.2	-6	-60
Cc1ccc(N2CCN(/N=C/C=C/c3ccccc3)CC2)cc1	-3	-4%	-0.8	3	-15
Cc1c(Cl)cnc(NC(=O)COC(=O)CCC(=O)c2cccs2)c1Cl	0	3%	2.5	.	-2
Cc1ccc(S(=O)(=O)NC(CC(C)C)C(=O)Nc2ccncc2)cc1 (stereo not given)	.	.	4.4	-2	.
COc1ccc(OC)c2c1sc(=NC(=O)CN1C(=O)CCC1=O)n2C	0	10%	.	.	.	Arbovirus anti repeat=0
COc1cc(C(O)c2nc3ccccc3n2C)cc(OC)c1OC (stereo not given)	9	5%	0.9	-10	-6	Arbovirus anti repeat=0
N#CC1CC(c2ccccc2)=NN1c1ccccc1[N+](=O)[O-] (stereo not given)	10	8%	-2.7	1	.
Nc1nc(SCCC(F)=C(F)F)n[nH]1	1	4%	-2.7	-7	.
Cc1occc1C(=O)N1CCCc2ccccc21	3	6%	-0.6	3	-61
O=S(=O)(c1ccc(NC(=S)N2CCN(c3ccc(O)cc3)CC2)cc1)N1CCOCC1	-29	-4%	-2.7	5	.
O=C(NCC(c1cccnc1)N1CCN(c2ccc(F)cc2)CC1)c1ccco1 (stereo not given)	2	-3%	-7.2	1	.
Cc1cccc(NC(=O)Cn2c([N+](=O)[O-])cnc2C)c1C	-7	-6%	1.2	1	-14
Cc1c(C(=O)NCc2ccccc2)oc2ccc(S(=O)(=O)N3CCC4(CC3)OCCO4)cc12	-4	0%	1.9	-3	10	Arbovirus anti repeat=-2
N#Cc1ccccc1Cn1c(=O)oc2ccccc21	.	.	-0.8	-4	.
O=C(O)C1C(C(=O)Nc2ccc(Cl)cc2)C2C=CC1C21CC1 (stereo not given)	-5	-2%	0.9	1	-7
Cc1cc(C)cc(NC(=O)N2CCC(NC(=O)c3ccccc3C)CC2)c1	-2	-4%	0.1	0	-2
O=C(Nc1ccccc1)OCc1cncs1	3	2%	0.9	-1	.
CCOc1ccc(NC(=O)CN(c2ccc(OC)cc2)S(C)(=O)=O)cc1	5	3%	-6.3	-9	-23	Arbovirus anti repeat=-2
CCOC(=O)c1cc(C)n(-c2ccc(Cl)cc2)c1C	.	-1%	8.9	3	.
COc1ccccc1CC(=O)Nc1ccc(OC)c(OC)c1	0	3%	-3.7	-13	-7	Arbovirus anti repeat=6
CCc1noc(C)c1C(=O)N1CCN(S(=O)(=O)c2ccc(C(C)C)cc2)CC1	.	.	0.5	-7	.
O=C(Nc1ccccc1C(=O)O)c1cccc(C(=O)Nc2ccccc2C(=O)O)c1	.	.	0.4	2	.
CCCc1nc2ccccc2c(=O)n1/N=C/c1ccc(O)cc1	-1	10%	-3.1	-5	-42
CCC(C)n1c(=N)c(C#N)cc2c(=O)n3cc(C)ccc3nc21 (stereo not given)	1	0%	-162	2	.
COc1ccc(Cl)cc1NC(=O)c1cccc(N2C(=O)C3CC=CCC3C2=O)c1 (stereo not given)	.	.	2.8	?	.
Cc1ccc(Cl)cc1N1C(=O)CC(C)(C)CC1=O	.	.	0.0	-5	.
Oc1nc(Nc2ccc(F)cc2)sc1/C=C1\C=Nc2ccccc21	.	3%	-2.6	23	.
CC(NC(=O)c1cccc(Cl)c1)C1CC2CCC1C2 (stereo not given)	.	.	-0.6	5	.
SMILES	Arbovirus anti	Mtb growth	RecA intein inh	Mtb betalactam	YopH inh	others
COc1ccc(OC)c(NC2c3ccccc3C(=O)N2Cc2ccc3c(c2)OCO3)c1 (stereo not given)	-7	9%	-1.7	3	-44	Arbovirus anti repeat=1
O=C(Nc1ncccc1O)C1CCN(S(=O)(=O)c2ccc3ccccc3c2)CC1	.	.	3.9	-4	.
CCCNc1nc(C)nc2c1cnn2CCc1ccccc1	-3	12%	-2.4	-3	-17
CC(=O)N(Cc1cc(=O)[nH]c2ccccc12)c1ccccc1	5	-9%	-1.5	1	-44
O=C(COc1ccccc1Cl)NC(=S)Nc1ccccc1N1CCCC1	.	.	-0.4	1	.
COc1ccccc1N1CCN(c2nc(C)cc(C)c2C#N)CC1	.	.	3.0	-10	.
CC1CN(c2ncc(/C=N/NC(=O)c3ccccc3O)s2)CC(C)O1 (stereo not given)	-4	48%	-1.9	51	.
CC1(C)CC(=O)C(N=Nc2ccc3ncsc3c2)=C(O)C1	3	3%	0.2	-5	-16
COc1ccc(CCNC(=O)Cn2nnc(C(=O)Nc3cc(C)ccc3C)c2N)cc1OC	.	.	-1.0	-6	.
COc1ccccc1CCCNC(=O)C1CCC(=O)N(CCc2cccc(F)c2)C1 (stereo not given)	.	.	-1.7	-9	.
C#CCOCCOCCOCCNc1nc(N2CCN(C(=O)[C@H]([C@@H](C)CC)n3cc(CCCCN)nn3)CC2)nc(N2CCN(C(=O)[C@H](C)n3cc(CCC(=O)O)nn3)CC2)n1	4	4%	1.7	-3	-8
COc1ccc(C(=O)Nc2ccnn2C2CCN(C(=O)C3CCOC3)CC2)cc1 (stereo not given)	.	.	-2.0	-8	.
Cc1ccc(C(=O)COc2ccccc2C(=O)Nc2ccccc2)cc1	-10	-8%	-1.1	-3	4
Cc1ccc(C)c(-n2ccnc2SCC(=O)O)c1	3	-3%	-0.3	-2	-24
CCN(CC)P(=O)(c1nccn1C)N(CC)CC	11	.	0.2	-11	.
CC(C)(C)c1ccc(OCC(O)CN2CCOCC2)cc1 (stereo not given)	.	.	-1.5	-5	.
CCOc1ccc(NS(=O)(=O)c2ccc(C(=O)N3CCCC3)cc2)cc1	.	.	-4.9	-14	.
COc1ccccc1C(=O)NC(=O)CSc1nncn1C(C)C	.	.	1.5	-4	.
CCc1c(C(C)=O)oc2ccc3c(C)cc(=O)oc3c12	.	-2%	-0.5	42	.
Cc1cc(OCc2nc(-c3cccnc3)no2)c(C)cc1Br	-3	-4%	0.4	44	-30
CCCCn1c(N)c(N(CCOC)C(=O)C2CCN(C(=O)c3ccc(F)cc3)CC2)c(=O)[nH]c1=O	.	.	0.3	-2	.
CCCC[C@@H](CNC)NC[C@H](NCCCCC1CCCCC1)C(C)C	.	.	-1.3	100	.
O=Cc1cn(-c2ccccc2)nc1-c1cc2ccccc2oc1=O	2	7%	-3.1	52	-23
O=C(Cn1cnc2scc(-c3ccccc3)c2c1=O)N1CCOCC1	12	3%	1.9	3	-15
CCOc1ccccc1NC(=O)CSc1nc(=O)n(CCN2CCOCC2)c2c1CCCC2	.	.	-0.3	-10	.
SMILES	Arbovirus anti	Mtb growth	RecA intein inh	Mtb betalactam	YopH inh	others
O=C(CSc1nnnn1C1CCCC1)NCc1ccccc1	-4	-3%	.	-8	0
CCn1c2ccccc2c2cc(NC(=O)CNCC3CCCO3)ccc21 (stereo not given)	-28	-1%	2.3	-5	.
O=C1c2ccccc2C(=O)N1CCCCN(C(=O)c1cc2ccccc2oc1=O)c1ccc(F)cc1F	6	1%	2.3	-1	-32
Cc1cc(=O)[nH]c(SCC(=O)Nc2ncc(S(=O)(=O)c3ccc([N+](=O)[O-])cc3)s2)n1	7	5%	3.6	3	.
COc1ccc(/C=C/c2onc(C)c2S(=O)(=O)N2CCC(C(=O)N3CCCCCC3)CC2)cc1	.	.	3.7	-6	.
COC(=O)C1C(=O)c2c([nH]c(C(=O)OC3CCCC3C)c2C)CC1C (stereo not given)	-17	3%	3.1	-4	-47	Arbovirus anti repeat=-13
COc1ccc(N2C(=O)NC(NS(=O)(=O)c3ccc(Cl)cc3)(C(F)(F)F)C2=O)cc1 (stereo not given)	.	.	0.1	4	.
CN(c1ccc(C(=O)NCCSCc2ccccc2)cc1)S(=O)(=O)c1ccccc1	4	-7%	9.4	5	-19
COc1ccc(S(=O)(=O)N2CCCC(C(=O)Nc3ccc(NC(=O)c4ccccn4)cc3)C2)cc1 (stereo not given)	-1	0%	-0.1	-8	-31
CCc1nc2ccccc2c(NC(=O)CN2CC(C)CC(C)C2)c1C (stereo not given)	1	2%	-2.1	2	.
COc1ccccc1N1CC(C(=O)Nc2ccccc2N2CCCC2)CC1=O (stereo not given)	.	.	-2.8	-3	.
Nc1nc(SCc2cccc([N+](=O)[O-])c2)n[nH]1	.	.	-1.0	0	.
NC(=O)CC(NC(=O)Cc1ccc(Cl)cc1)c1ccc(NC2CCCCC2)c([N+](=O)[O-])c1 (stereo not given)	.	-9%	-1.0	-5	.
C[n+]1cn(Cc2ccc(C#N)cc2)c2ccccc21	.	.	0.1	3	.
Cc1ccc(C(=O)NC2CCN(S(=O)(=O)c3ccc(C)cc3)CC2)cc1	-3	-2%	0.3	-15	.
CN1CCN(C(=O)/C=C/c2ccc([N+](=O)[O-])cc2)CC1	-10	1%	-0.2	-4	-17
O=C(COc1ccc(Cl)cc1)NCc1nnc(SCC(=O)N2CCCCC2)o1	-3	10%	1.4	-5	0

Retrieved by compound from the list above (3):
SMILES	Arbovirus anti	Mtb growth	RecA intein inh	Mtb betalactam	YopH inh	others
Nc1nc(SCc2cccc([N+](=O)[O-])c2)n[nH]1	.	.	-1.0	0	.
COC(=O)C1C(=O)c2c([nH]c(C(=O)OC3CCCC3C)c2C)CC1C (stereo not given)	-17	3%	3.1	-4	-47	Arbovirus anti repeat=-13
COc1ccc(/C=C/c2onc(C)c2S(=O)(=O)N2CCC(C(=O)N3CCCCCC3)CC2)cc1	.	.	3.7	-6	.

This is a subset; the hit share may differ from the screen's.
